# Compound activity deposited in PubChem by several laboratories.
# RecA splice inh: Mtb RecA intein splicing inhibition; P9WHJ3; cell-free RecA intein splicing, fluorescence; inhibition, %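 (about 9 µM by stock and volumes)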; 290,000 tested, 0.75% active; AID 2221; in the data active = inhibition above about 30%; inconclusive = no clear call, values can overlap the other calls;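 note: 0% = vehicle wells and 100% = reference inhibitor control wells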
# Target sequence (P9WHJ3 whole entry, looked up, canonical isoform): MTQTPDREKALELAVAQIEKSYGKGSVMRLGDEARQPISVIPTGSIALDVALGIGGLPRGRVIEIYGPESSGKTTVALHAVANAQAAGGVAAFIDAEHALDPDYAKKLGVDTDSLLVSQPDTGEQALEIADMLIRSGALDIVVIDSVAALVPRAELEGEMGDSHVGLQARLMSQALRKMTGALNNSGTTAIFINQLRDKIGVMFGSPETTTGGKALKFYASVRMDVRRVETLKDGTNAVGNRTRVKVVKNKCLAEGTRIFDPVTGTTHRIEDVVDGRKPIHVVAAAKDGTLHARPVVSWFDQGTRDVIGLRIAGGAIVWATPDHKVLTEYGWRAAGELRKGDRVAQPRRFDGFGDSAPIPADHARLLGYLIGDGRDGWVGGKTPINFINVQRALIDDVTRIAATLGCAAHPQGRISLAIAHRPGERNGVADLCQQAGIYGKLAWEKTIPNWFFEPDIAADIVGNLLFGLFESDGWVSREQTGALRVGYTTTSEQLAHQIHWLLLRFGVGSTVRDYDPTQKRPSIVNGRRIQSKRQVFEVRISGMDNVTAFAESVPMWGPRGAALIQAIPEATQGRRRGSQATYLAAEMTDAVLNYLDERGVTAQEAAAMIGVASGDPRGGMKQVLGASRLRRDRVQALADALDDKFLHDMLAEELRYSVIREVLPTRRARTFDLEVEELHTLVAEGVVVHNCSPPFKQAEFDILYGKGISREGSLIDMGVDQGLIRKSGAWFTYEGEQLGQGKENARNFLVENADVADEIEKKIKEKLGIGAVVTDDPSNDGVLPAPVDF
# YopH inh: inhibitors of Yersinia enterocolitica YopH tyrosine phosphatase. 140,000 tested, 0.16% active. fluorescence Ex485/Em525. inhibition, %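 (about 10 µM by stock and volumes)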;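 active = inhibition of 50% or more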;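 note: controls were vehicle for no effect and minimum signal wells for full effect; inactives centre near -20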
# Mtb bLac sens: beta-lactam sensitization of Mtb H37Rv | M. tuberculosis H37Rv growth with meropenem, percent inhibition; hits of this screen are not shown here | inhibition, % at 25 µM | 330,000 tested, 0.27% active | AID 434955;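 active = about 74% or more and at least 40 points above the plate without the antibiotic, then above 30% in a dose series; inconclusive = first-round hits that could not be retested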;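 note: growth measured after seven days incubation then overnight dye step; 0% = bacteria only wells and 100% = bacteria with antibiotic; twin plates without the antibiotic show which effects depend on it; some results filed as inactive read as strong as hits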
# Arbovirus anti: antivirals against arbovirus infection | arbovirus infection cell-based antiviral screen | inhibition, % at 10 µM | 200,000 tested, 0.37% active | AID 1251;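 active = inhibition from about 30%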;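 note: bluetongue infection of BSR cells; cell survival read as ATP light after 72 h; 0% = infected wells without compound and 100% = uninfected wells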
# Mtb H37Rv: M. tuberculosis H37Rv growth inhibitors, H37Rv strain (AID 1626); M. tuberculosis H37Rv growth inhibition; higher % means a stronger effect; inhibition, % at 10 µM; hits with a dose series show IC50 in µM; 220,000 tested, 0.95% active;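 active = confirmed in a dose series; inconclusive = inhibition above 80% but not taken into the dose series; inactive = below 80% or under 30% at every dose of the series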;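 note: bacteria incubated seven days before Alamar blue readout; 0% = bacteria only wells and 100% = bacteria with antibiotic wells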
# Arbovirus anti repeat: also measured in Arbovirus anti; calls as there; inhibition, %; measured here: 10K subset replicate screen; many hits read low in the repeat;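 first of two repeat runs on a subset; 0% = infected and 100% = uninfected wells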
# The depositor's hits bear a star; u = inconclusive; x = not tested or not shown. Only part of the results is shown, so the mix of outcomes need not match the whole.
SMILES,RecA splice inh,YopH inh,Mtb bLac sens,Arbovirus anti,Mtb H37Rv,others
Cc1cc(C)n2nc(SCc3cccc(S(=O)(=O)N(C)C)c3)nc2n1,-1.4,x,-4,x,x,
COc1ccc(CC(=O)NNC(=O)c2ccc(NC(C)=O)cc2)cc1,-0.4,x,-7,2,4%,
COc1ccc(N2CC(C(=O)OCC(=O)NCc3ccccc3)CC2=O)cc1 (configuration not stated),-1.8,-32,3,6,-3%,
CN(C)c1ccc(/C=C2\C(=O)NC(=O)N(CCc3ccc(F)cc3)C2=O)cc1,5.5,x,0,x,-7%,
Cn1nnnc1SCCNCc1cccnc1,-0.1,-35,3,0,-8%,
O=C(c1ccc(-n2c(SCc3cccc(F)c3)nc3ccccc3c2=O)cc1)N1CCOCC1,-1.4,-15,1,-7,-1%,
O=C1Nc2cc(Cl)ccc2C1(N1CCNCC1)C(F)(F)F (configuration not stated),-0.4,-36,-5,-7,4%,
O=C(CSc1n[nH]c(-c2cccs2)n1)NCc1cccs1,-0.6,-35,-2,1,6%,
c1ccc(C2NCCc3ccccc32)cc1 (configuration not stated),1.9,x,-12,2,0%,
CCNc1nc(N)nc(-c2cc(Cl)ccc2OC)n1,-0.6,-27,2,2,4%,
O=C(CCC1CCCN(C(=O)c2ccoc2)C1)NCc1ccc(F)c(F)c1 (configuration not stated),-3.3,x,-1,-8,-2%,
O=C(c1ccco1)N1CCN(C/C=C/c2ccccc2)CC1,0.2,1,2,-1,-5%,
COc1cccc(-n2nnc3c(=O)n(Cc4cccc(C)c4)cnc32)c1,1.7,x,9,-16,10%,Arbovirus anti repeat=3
COc1ccc(NC(=O)CSc2ccccc2)cc1S(=O)(=O)N1CCCCC1,5.4,-15,0,0,-3%,
CCCOC(=O)c1ccc(NC(=O)c2ccoc2C)cc1,1.1,-21,66,-4,75%,Arbovirus anti repeat=-4
Cc1cccc(NS(=O)(=O)c2ccc(C)c(C(=O)NCc3ccncc3)c2)c1,1.4,x,-18,x,x,
Cc1ccc(S(=O)(=O)N(CC(=O)N2CCOCC2)c2ccccc2F)cc1,0.7,x,0,x,x,
CCOc1cc(C)cc2oc(=O)cc(-c3ccccc3)c12,3.9,-1,4,-8,-2%,
CC1(C)N=C(c2cccs2)C(C)(C)N1O,-2.5,1,-4,6,7%,
O=C(NCCCN1CCOCC1)C(=O)N/N=C/c1ccc(F)cc1,-0.1,x,6,12,-8%,
CC(C)N(C(=O)Cn1cc(S(=O)(=O)CC(=O)NCc2ccccc2)c2ccccc21)C(C)C,-2.5,x,-1,x,x,
C=CCc1cccc(/C=N/NC(=O)C(C)Nc2ccc(C)cc2)c1O (configuration not stated),-0.2,-24,9,-28,5%,
COc1ccc(N2CCN(C(=O)COC(=O)COc3cc(C)cc(C)c3)CC2)cc1,-3.2,x,71,x,x,
O=C(Nc1ccc2ccccc2c1)N1C[C@H]2C[C@@H](C1)c1cccc(=O)n1C2,1.3,x,0,x,6%,
COc1cccc2c(=O)c3c([nH]c12)OC(C)(C)C3,-1.9,x,-3,x,x,

# As a short view, part of the list above:
SMILES,RecA splice inh,YopH inh,Mtb bLac sens,Arbovirus anti,Mtb H37Rv,others
O=C(c1ccc(-n2c(SCc3cccc(F)c3)nc3ccccc3c2=O)cc1)N1CCOCC1,-1.4,-15,1,-7,-1%,
O=C1Nc2cc(Cl)ccc2C1(N1CCNCC1)C(F)(F)F (configuration not stated),-0.4,-36,-5,-7,4%,
O=C(CSc1n[nH]c(-c2cccs2)n1)NCc1cccs1,-0.6,-35,-2,1,6%,
c1ccc(C2NCCc3ccccc32)cc1 (configuration not stated),1.9,x,-12,2,0%,
CCNc1nc(N)nc(-c2cc(Cl)ccc2OC)n1,-0.6,-27,2,2,4%,
O=C(CCC1CCCN(C(=O)c2ccoc2)C1)NCc1ccc(F)c(F)c1 (configuration not stated),-3.3,x,-1,-8,-2%,
O=C(c1ccco1)N1CCN(C/C=C/c2ccccc2)CC1,0.2,1,2,-1,-5%,
COc1cccc(-n2nnc3c(=O)n(Cc4cccc(C)c4)cnc32)c1,1.7,x,9,-16,10%,Arbovirus anti repeat=3
COc1ccc(NC(=O)CSc2ccccc2)cc1S(=O)(=O)N1CCCCC1,5.4,-15,0,0,-3%,
CCCOC(=O)c1ccc(NC(=O)c2ccoc2C)cc1,1.1,-21,66,-4,75%,Arbovirus anti repeat=-4
Cc1cccc(NS(=O)(=O)c2ccc(C)c(C(=O)NCc3ccncc3)c2)c1,1.4,x,-18,x,x,
Cc1ccc(S(=O)(=O)N(CC(=O)N2CCOCC2)c2ccccc2F)cc1,0.7,x,0,x,x,
CCOc1cc(C)cc2oc(=O)cc(-c3ccccc3)c12,3.9,-1,4,-8,-2%,
CC1(C)N=C(c2cccs2)C(C)(C)N1O,-2.5,1,-4,6,7%,
O=C(NCCCN1CCOCC1)C(=O)N/N=C/c1ccc(F)cc1,-0.1,x,6,12,-8%,
CC(C)N(C(=O)Cn1cc(S(=O)(=O)CC(=O)NCc2ccccc2)c2ccccc21)C(C)C,-2.5,x,-1,x,x,
C=CCc1cccc(/C=N/NC(=O)C(C)Nc2ccc(C)cc2)c1O (configuration not stated),-0.2,-24,9,-28,5%,
COc1ccc(N2CCN(C(=O)COC(=O)COc3cc(C)cc(C)c3)CC2)cc1,-3.2,x,71,x,x,
O=C(Nc1ccc2ccccc2c1)N1C[C@H]2C[C@@H](C1)c1cccc(=O)n1C2,1.3,x,0,x,6%,
COc1cccc2c(=O)c3c([nH]c12)OC(C)(C)C3,-1.9,x,-3,x,x,

# The listing picks up; the 4 compounds before the break are reprinted first.
SMILES,RecA splice inh,YopH inh,Mtb bLac sens,Arbovirus anti,Mtb H37Rv,others
C=CCc1cccc(/C=N/NC(=O)C(C)Nc2ccc(C)cc2)c1O (configuration not stated),-0.2,-24,9,-28,5%,
COc1ccc(N2CCN(C(=O)COC(=O)COc3cc(C)cc(C)c3)CC2)cc1,-3.2,x,71,x,x,
O=C(Nc1ccc2ccccc2c1)N1C[C@H]2C[C@@H](C1)c1cccc(=O)n1C2,1.3,x,0,x,6%,
COc1cccc2c(=O)c3c([nH]c12)OC(C)(C)C3,-1.9,x,-3,x,x,
Cc1ccc(NS(=O)(=O)c2c(C)noc2C)cc1,-1.7,x,6,x,x,
Cc1cc(=O)oc2cc(OCC(=O)NC3CC(C)(C)NC(C)(C)C3)ccc12,-2.3,x,-5,x,x,
Cc1ccc(O)c(N=Cc2cc(Cc3ccccc3)cc([N+](=O)[O-])c2O)c1,x,x,x,-5,u,
COC(=O)C(NC(=O)CSc1nc(N)cc(=O)[nH]1)c1ccccc1 (configuration not stated),-1.7,x,-6,3,6%,
Cc1cccc(N2C(=O)c3ccc(Br)cc3C2=O)n1,0.0,x,3,x,x,
CCCCOC(=O)Nc1cc(Cl)ccc1C,0.4,-3,15,-7,6%,
O=C(COC(=O)CCC(=O)c1cccs1)Nc1ccc(S(=O)(=O)N2CCOCC2)cc1,-1.6,-26,4,6,x,
Cc1ccc(-n2nc(C(=O)O)cc2-c2ccccc2Cl)cc1,1.1,x,0,x,x,
Nn1c(SCc2nc3ccccc3[nH]2)nnc1-c1ccccc1,0.9,-24,10,12,-2%,
Cc1ccc(CNC(=O)/C=C/c2cccs2)cc1,0.1,-21,6,-2,5%,
O=C(NCc1ccc2c(c1)OCO2)C1CCN(S(=O)(=O)N2CCCCC2)CC1,-0.3,-28,-7,-3,-3%,
CC1CN(S(=O)(=O)c2cccc(C(=O)OC(C)C(=O)NC3CCCCC3C)c2)CC(C)O1 (configuration not stated),4.2,x,-7,x,x,
CCN(CC)C(=O)c1ccc(C)c(Br)c1,-0.4,-42,0,5,-15%,
O=C(Nc1ccc2oc(=O)ccc2c1)c1ccc(-c2ccccc2[N+](=O)[O-])o1,-0.1,x,-4,x,3%,
CC(=O)N1CN2CN(C(C)=O)CC(C(=O)c3ccc([N+](=O)[O-])cc3)(C2)C1,-2.7,x,-1,-2,-7%,
CC(CN1CCC(n2nccc2NC(=O)CCCc2ccccc2)CC1)c1ccccc1 (configuration not stated),-0.8,x,-2,x,x,
CCC(C)(C)n1nnnc1C(c1cccnc1)N1CCC(Cc2ccccc2)CC1 (configuration not stated),9.5,x,8,3,11%,
C=CCNC(=O)c1ccccc1NC(=O)Nc1ccccc1,0.3,1,-1,-2,1%,
CSc1ccc(CN(C)CCc2ccccn2)cc1,0.5,x,-12,x,x,
Cc1nc(Cl)sc1C(=O)NC(C)c1ccc(Cl)cc1 (configuration not stated),-0.7,-23,3,-2,2%,
COc1ccc(Br)cc1-c1noc(-c2ccccc2)n1,-0.7,-20,-8,3,7%,
CCOC(=O)c1ccc2c(c1)[n+](CC)c(C)n2-c1ccccc1,0.2,x,-2,6,-5%,
CN1CCN(c2ccc([N+](=O)[O-])cc2C(=O)N2CCCCC2)CC1,-2.0,-42,-8,12,-8%,
O=C(c1ccc2c(Cl)c3c(nc2c1)CCCC3)N1CCN(c2ccc(F)cc2)CC1,-0.4,-12,23,-12,67%,
CC(C)c1cc(C(F)(F)F)n2nc(C(=O)Nc3ccc4c(c3)OCO4)cc2n1,-1.3,-41,29,31*,-1%,
# (more compounds)
SMILES,RecA splice inh,YopH inh,Mtb bLac sens,Arbovirus anti,Mtb H37Rv,others
COc1ccccc1CCN=C(N)NS(=O)(=O)c1ccccc1,0.2,x,-2,8,3%,
Cc1ccc(S(=O)(=O)N2CCCOC2CNC(=O)C(=O)NCCC2=CCCCC2)cc1 (configuration not stated),0.6,-24,1,-4,8%,
CN(C)c1cccc2c1C(=O)c1ccccc1C2=O,6.8,-29,4,-24,20%,
COc1ccc(CCNc2cc(=O)[nH]c(N)n2)cc1,3.1,-33,-10,-7,-3%,
CCCC(=O)Nc1ccc(S(=O)(=O)Nc2cc(C)nc(C)n2)cc1,1.3,-11,-5,2,-5%,
Cn1c(-c2ccc3c(c2)OCO3)cnc1NCc1ccc(Cl)cc1,1.8,-19,51,7,-3%,
Cc1c(Cl)cccc1-n1c(SCC(=O)N2CCC(C(=O)O)CC2)nnc1-c1ccncc1,-0.9,x,2,0,6%,
CCOC(=O)c1[nH]c(C)c(C(=O)NC2CCCC2)c1C,-0.1,-24,u,2,-3%,
c1ccc2nc(-c3ccc4c(c3)OCO4)ccc2c1,2.2,x,1,-7,2%,Arbovirus anti repeat=-4
CCOC(=O)NC(=O)COC(=O)CNC(=O)c1cccc(OC)c1,3.5,x,-8,1,0%,
O=C(Nc1ccc(CN2CCOCC2)cc1)c1ccc(Br)o1,-7.3,x,5,x,x,
CCCCC(C(=O)NC(C)c1ccccc1)C(=O)NC(C)c1ccccc1 (configuration not stated),4.1,x,-2,x,x,
COc1ccc(-n2c(C)cc(C(=O)NC3CCCCC3)c2C)cc1,4.3,-22,-4,-9,7%,
O=C(Nc1ccc(S(=O)(=O)N2CCc3ccccc32)cc1)c1ccc2c(c1)OCO2,-4.5,-23,-1,2,-8%,
Cc1c(C(=O)NCCCN2CCOCC2)oc2ccc(S(=O)(=O)N3CCOCC3)cc12,-1.6,x,0,0,-3%,
COc1nc(-c2ccccc2)cc(C(F)(F)F)n1,-2.6,3,4,-2,2%,
CCOC(=O)n1c(=O)oc2ccccc21,-0.6,-35,6,-1,4%,
COc1ccc(CCn2c(O)c(C=Nc3ccccc3F)c(=O)[nH]c2=O)cc1OC,3.6,x,-4,x,-12%,
Cc1noc(/C=C/c2cccs2)c1S(=O)(=O)N1CCC(C(=O)NCCCN2CCCC(C)C2)CC1 (configuration not stated),4.3,x,3,-11,6%,
CCCOc1ccc(-c2nnn(CC(=O)OCC)n2)cc1,3.9,-2,u,-2,79%,
Nc1nc2nccc(-c3ccccn3)n2n1,4.5,x,-1,-1,3%,
O=C(Nc1ncccc1O)c1ccc(OCC2CCCO2)cc1 (configuration not stated),-5.7,x,-3,x,x,
O=C(CCS(=O)(=O)c1cccc2nsnc12)NC1CCCCC1,1.9,-9,-2,5,-5%,
O=C1CN(C(=O)CNC(=O)c2ccc(Cl)cc2Cl)CCN1,0.8,x,0,x,x,
Cc1cccc2cc(C(c3nnnn3Cc3ccccc3)N3CCCc4ccccc43)c(=O)[nH]c12 (configuration not stated),1.8,-17,u,-14,8%,
